# MbtI inh – MbtI salicylate synthase inhibition | P9WFX0 | purified MbtI enzyme, fluorescence intensity read-out | inhibition, %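 (about 17 µg/mL by stock and volumes)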 | 0.89% of 100,000 active;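 active means above 50% in both replicates, above 80% if mildly self-fluorescent; inactive means the rest, strongly fluorescent compounds included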;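 further: 0% = mean of negative and 100% = mean of positive controls; one replicate is shown; some compounds called inactive have numbers as strong as hits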
# Target sequence (P9WFX0 whole entry, looked up): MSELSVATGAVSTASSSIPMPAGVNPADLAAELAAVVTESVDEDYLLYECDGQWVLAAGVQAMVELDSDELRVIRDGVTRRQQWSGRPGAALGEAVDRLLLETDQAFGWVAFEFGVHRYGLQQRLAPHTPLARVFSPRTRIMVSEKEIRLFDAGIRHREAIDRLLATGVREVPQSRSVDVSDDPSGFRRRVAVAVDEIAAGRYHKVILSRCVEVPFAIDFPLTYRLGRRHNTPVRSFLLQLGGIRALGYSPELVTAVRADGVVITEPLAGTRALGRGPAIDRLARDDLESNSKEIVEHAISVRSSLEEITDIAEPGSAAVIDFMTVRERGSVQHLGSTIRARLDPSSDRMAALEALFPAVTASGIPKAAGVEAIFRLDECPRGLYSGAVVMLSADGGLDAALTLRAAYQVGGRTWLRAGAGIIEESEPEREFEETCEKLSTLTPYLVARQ
# Polio RdRp inh – inhibitors of poliovirus RNA polymerase binding and polymerization | P03300 | poliovirus polymerase elongation, fluorescence polarization; active compounds read low | % elongation, % (compound at 16.7 µg/mL) | 0.66% of 150,000 active; in the data active means % elongation below about 90%; further: some results filed as inactive read as strong as hits
# Mtb MenB inh – inhibitors of Mycobacterium tuberculosis MenB enzyme; P9WNP5; MenB enzyme assay, absorbance read-out; some hits fall short of the stated cut; inhibition, %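 (about 12 µg/mL by stock and volumes)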; 0.43% of 100,000 active; AID 540299;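 active means mean of two replicates above 30%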;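 further: 0% = no compound and 100% = wells with inactive enzyme; the first replicate is given; strong numbers were not always called active; inactives centre near -10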
# Target sequence (P9WNP5 whole entry, looked up): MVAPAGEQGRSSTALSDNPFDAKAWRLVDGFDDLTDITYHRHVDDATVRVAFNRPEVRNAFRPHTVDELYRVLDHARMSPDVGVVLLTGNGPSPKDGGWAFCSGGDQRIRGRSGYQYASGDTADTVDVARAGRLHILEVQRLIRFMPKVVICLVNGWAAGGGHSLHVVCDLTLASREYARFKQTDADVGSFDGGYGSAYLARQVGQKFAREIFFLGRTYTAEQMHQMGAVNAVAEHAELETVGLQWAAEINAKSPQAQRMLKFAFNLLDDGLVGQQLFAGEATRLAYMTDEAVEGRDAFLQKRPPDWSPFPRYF
# Polio RdRp inh intensity – second read-out of Polio RdRp inh, no call of its own (marks repeat the call); % elongation; measured here: total intensity read-out; formula for this scale not given here;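 total fluorescence in place of polarization; lower means less elongation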
# * hit, by the source's call; i = inactive; x = not tested or not shown; & = joins results of further samples.
# Each structure is followed by: MbtI inh	Polio RdRp inh	Polio RdRp inh intensity	Mtb MenB inh
> Cc1ccc(-c2cnc(-c3ccncc3)o2)cc1
→ 116	104	103	-12
> COc1cccc(N2CC(=O)N(/N=C/c3ccc(Cl)cc3)CC2=O)c1
→ 1	102	107	-6
> CCCc1nc2ccccc2n1CC(=O)Nc1ccc(F)cc1
→ -12	104	111	x
> CO/C(C)=C\c1sc2ccccc2[n+]1C
→ 7	101	98	x
> O=C(COC(=O)c1c(C(F)(F)F)cccc1C(F)(F)F)c1ccc(Cl)cc1
→ -6	104	93	-31
> Cc1ccc(NC(=O)NC2CC(C)(C)NC(C)(C)C2)cc1
→ -10	100	101	6
> CCCN1CCCc2cc(CN(CCOC)C(=S)Nc3ccccc3OC)ccc21
→ 1	104	99	-14
> O=C(CN1CCN(c2ccc(F)cc2)CC1)N1CCCC1
→ -2	101	100	-23
> Cc1noc(C)c1C(=O)OCC(=O)N(c1ccccc1)C1CCCCC1
→ 10	104	103	-3
> COC(=O)c1cc(S(=O)(=O)NCc2ccccc2)c[nH]1
→ -12	100	99	-5
> CCN1C(=O)N(c2ccccc2)P(=S)(N2CCCC2)c2cc3c(cc21)OCCO3 (stereo not given)
→ 90*	87*	93*	-18
> CCOC(=O)N1CCC(N(CCN(C)C)C(=S)Nc2ccc(C)c(F)c2)CC1
→ -7	103	105	3
> COc1ccc2nc(C(=O)N3CCN(C)CC3)sc2c1
→ x	100	95	-5
> CC(C)C(=O)Nc1ccc2c(c1)C(=O)NC2=O
→ i	100	104	-47
> CN(Cc1ccccc1)C(=O)CCN1C(=O)COc2ccccc21
→ -6	99	106	5
> Clc1cc(CSc2nnnn2C2CCCC2)cc2c1OCCCO2
→ -3	99	97	-18
> O=C(Nc1ccccc1N1CCCC1)c1cccc(OCc2ccccc2)c1
→ -5	106	104	-28
> COc1cccc(-c2nn(C)c3sc(C(=O)NCc4ccccn4)cc23)c1
→ 4	103	96	-29
> CCOc1cc(C=C2C(=O)OC(C)(C(C)(C)C)OC2=O)ccc1O (stereo not given)
→ 7	102	97	-20
> O=C(C(NS(=O)(=O)c1cccc2nsnc12)c1ccccc1)N1CCN(c2ccc(F)cc2)CC1 (stereo not given)
→ -8	103	103	-25
> CCC(C)c1ccccc1OCCCCN1CCN(C)CC1 (stereo not given)
→ -21	102	104	-20
> Cc1ccc2c(c1)CCCN2C(=O)CC1OC(=O)c2ccccc21 (stereo not given)
→ -6	101	102	-26
> O=C(NCCN1CCOCC1)c1cccc(S(=O)(=O)Nc2ccccc2F)c1
→ -4	104	110	-5
> C[N+](C)(C)CCO
→ -4	100	101	5
> Cc1ccc(C(=O)N(C)Cc2nc3ccccc3c(=O)[nH]2)c(O)c1
→ -5	93	101	-12
> CC(NC(=O)CSc1ccccc1Cl)C1CC2CCC1C2 (stereo not given)
→ -6	97	94	x
> Cc1ccccc1-c1nnc(C2CCC(c3ccccc3)CC2)o1 (stereo not given)
→ -15	102	102	-20
> CN(C)c1ccc(/C=N/N2C(=O)C3C4C=CC(C4)C3C2=O)o1 (stereo not given)
→ 2	95	106	-135
> CC(O)C(NS(=O)(=O)c1ccc(Cl)cc1)C(=O)OCc1nnc(-c2ccccc2)o1 (stereo not given)
→ 3	97	101	-13
> COc1cccc(C(=O)Nc2ccc3oc(-c4cccc(I)c4)nc3c2)c1
→ -30	103	100	-16
> Cc1c(/C=N/NC(=O)c2cncc(Br)c2)c2ccccc2n1C
→ -27	101	104	-40
> CCn1nccc1NC(=O)c1ccccc1
→ 8	101	103	-10
> O=C(c1cccc(-n2cccc2)c1)N1CCC(c2nc3ccccc3s2)CC1
→ -2	100	93	-40
> O=C1c2ccccc2C(=O)N1CN(C(=O)c1cccnc1)c1cccc(F)c1
→ 37	104	109	-12
> CCC(NC(=O)OC1CCCCC1C)(C(F)(F)F)C(F)(F)F (stereo not given)
→ x	102	105	-8
> CNC(=O)Cn1ncc2c3ccccc3n(Cc3ccccc3F)c2c1=O
→ 17	103	101	-4
> COC(=O)c1ccccc1NC(=O)c1ccc(Cn2cc(Cl)cn2)o1
→ 9	102	100	13
> Cc1cc(C)c2c(n1)sc1c(=O)[nH]cnc12
→ 6	103	100	-23
> CC(=O)N1CCCCNC1=S
→ 11	105	110	-9
> C=CCn1c(=O)n2ncnc2c2c3c(sc21)CCCC3
→ -13	100	103	-9
> Cc1ccc(S(=O)(=O)N2CCN(c3nc(-c4ccccc4)ns3)CC2)cc1
→ -6	102	103	-14
> Cn1c(=O)oc2cc(S(=O)(=O)N3CCC(C(=O)Nc4ccc(Br)cc4)CC3)ccc21
→ -7	98	104	-34
> COc1ccc(SCC(=O)Nc2ccccn2)cc1
→ x	105	109	-13
> C[n+]1c(-c2ccccc2)oc2ccc3[nH]ccc3c21
→ -15	103	105	x
> CC(C)S(=O)(=O)c1cnc(-c2cnccn2)nc1N
→ 9	103	101	-5
> CN(C)C(=O)NCc1ccc(S(N)(=O)=O)cc1
→ 10	101	100	5
> O=C1c2cccc3cccc(c23)C(=O)N1O
→ 41	100	102	-38
> CC1(C)CC(=O)C(C=NC(C)(C)C)=C(O)C1
→ 14	102	103	-6
> CCS(=O)(=O)N1Cc2ccccc2CC1C(=O)Nc1ccc(NC(C)=O)cc1 (stereo not given)
→ -7	100	94	-21
> c1ccc2[nH]c(Cc3nc4ccccc4[nH]3)nc2c1
→ -14	99	95	x
> ClCC1Cc2cc(I)c(Cl)cc2O1 (stereo not given)
→ 17	101	98	x
> O=c1c(Cl)c(Cl)cnn1Cc1cc(=O)n2ccsc2n1
→ 6	93	100	-27
> COC(=O)c1sccc1-c1ccc(-c2ccn(C(=O)c3ccc(Cl)cc3)n2)o1
→ 26	103	111	11
> Cc1cc(C(=O)CCC(=O)N2CCN(c3ncccn3)CC2)c(C)s1
→ -4	109	124	-23
> COc1ccc(-n2ncc(NC(=O)NCc3cccs3)c2C)cc1
→ -3	103	100	7
> O=C(CSc1nnc2ccccn12)Nc1ccc2ccccc2c1
→ -21	100	102	-8
> CCCCCNc1nc(-c2ccco2)c2c(c1C#N)CCCC2
→ 39	102	103	-17
> COc1ccc(N2CCN(CCNC(c3ccc(F)cc3)c3nnc(-c4ccccc4)o3)CC2)cc1 (stereo not given)
→ -22	100	103	-11
> O=C(Cn1c(NCCO)nc2ccccc21)c1ccccc1
→ -3	100	103	-11
> NC(=O)C1=CN(C(=O)Nc2ccc(Cl)cc2)CCC1C(F)(F)F (stereo not given)
→ -11	102	102	-7

# Further entries follow:
# Each structure is followed by: MbtI inh	Polio RdRp inh	Polio RdRp inh intensity	Mtb MenB inh
> COc1cc([C@@H]2c3cc4c(cc3[C@H](O)[C@H]3COC(=O)[C@@H]23)OCO4)cc(OC)c1OC
→ -3	99	95	-8
> Cc1cc(C(=O)COC(=O)c2ccccc2NS(C)(=O)=O)c(C)n1C1CC1
→ -5	98	103	-3
> COc1c2c(cc3c1C(CC(=O)c1ccccc1)N(C)CC3)OCO2 (stereo not given)
→ 20	x	x	-10
> C(=NCc1ccco1)c1cn(-c2ccccc2)nc1-c1ccccc1
→ -4	109	118	9
> Cc1ccc(CSc2nc3ccccc3c(=O)n2CCc2ccccc2)cc1
→ -8	104	105	-12
> Cc1cc(C)n2nc(Nc3ccccc3)c(C(N)=O)c2n1
→ -6	102	110	x
> CCOC(=O)c1ccc(NC(=O)C(Sc2ccccc2)c2ccccc2)cc1 (stereo not given)
→ x	112	90	-41
> OCCN/N=C/c1cccc(OC(F)F)c1
→ 1	105	105	-20
> CCOC(=O)Nc1nc2c(F)c(F)c(F)cc2s1
→ -11	102	105	x
> Fc1ccc(C(c2nnnn2C2CCCC2)N(Cc2ccccc2)Cc2ccco2)cc1 (stereo not given)
→ -7	103	103	5
> Clc1ccccc1OCCOc1ncnc2sccc12
→ 4	103	97	8
> O=C1OCCC1Sc1nc2ccccc2n1-c1ccccc1 (stereo not given)
→ -6	102	106	x
> CCOC(=O)c1cnn(-c2ccc(Cl)nn2)c1/N=C/N(C)C
→ 4	104	109	1
> CNC(=O)N(O)C1N(c2ccccc2)C(=S)SC1(C)C (stereo not given)
→ -2	102	104	-1
> CC(O)Cn1c(NCc2ccccc2)nc2c1c(=O)n(C)c(=O)n2C (stereo not given)
→ 7	103	103	-46

# Continued:
SMILES | MbtI inh | Polio RdRp inh | Polio RdRp inh intensity | Mtb MenB inh
CCCCc1oc2ccccc2c1C(=O)c1cc(I)c(OCCN(CC)CC)c(I)c1 | -5&2 | 105&102&102 | 103&102&98 | -4&6
CC1(C)S[C@@H]2[C@H](NC(=O)Cc3ccccc3)C(=O)N2[C@H]1C(=O)O | -5&-27 | 100&100 | 103&102 | 5&-3
CCc1cc2c(=O)[nH]cnc2s1 | -11&13 | 103 | 98 | -51
O=C(CSc1nc2ccccc2n1CCc1ccccc1)N1CCOCC1 | -8 | 98 | 95 | x
O=C(CN1CCN(Cc2cccc(Cl)c2)C1=O)N1CCCC1 | 1 | 98 | 104 | 14
O=C1OC2(CCCCC2)OC(=O)C1=Cc1ccoc1 | -8 | 98 | 95 | -26
CC(=O)N1CCc2cc(Br)cc(S(=O)(=O)N3CCCC3)c21 | -2 | 102 | 106 | -9
Cc1ccc(C)c(C(=O)OCC(=O)N(C)c2ccccc2)c1 | -13 | 104 | 105 | x
Cc1ccccc1OCC(=O)N1CCOCC1 | -1 | 99 | 105 | -9
COc1ccc(C2Oc3ccccc3C3CC(c4ccc(C)o4)=NN32)cc1OC (stereo not given) | 5 | 100 | 107 | 12
CCOc1ccc(N2C(=O)C(CC(=O)Nc3ccccc3)N(CCN3CCN(C)CC3)C2=S)cc1 (stereo not given) | -4 | 103 | 102 | -17
O=C(CC(Nc1ccccc1)C(=O)O)c1ccccc1 (stereo not given) | 12 | 108 | 102 | 17
O=C(N/N=C/c1ccco1)c1ccc(CN2c3cccc4cccc(c34)S2(=O)=O)cc1 | 155 | 102 | 108 | -16
NNC(=O)c1oc2nc(-c3ccccc3)cc(-c3ccco3)c2c1N | 25 | 104 | 103 | -22
CN(C)S(=O)(=O)c1cccc(COC(=O)C2=NNC(=O)CC2)c1 | -7 | 96 | 99 | 0
CSc1nc2ccccc2n1N | -5 | 100 | 98 | x
O=C1C=C2C=C[C@@H]3CC2(O1)[C@H]1CCCCN31 | 0 | 99 | 99 | -4
CCCOC(=O)Nc1cccc(C(=O)OCCC)c1 | -6 | 100 | 101 | -9
COc1ccc([C@@H]2CC(=O)c3c(O)cc(O)cc3O2)cc1O | 9 | 99 | 101 | -18
Cc1ccc2oc(=O)n(CCc3noc(-c4cc(C)on4)n3)c2c1 | -5 | 102 | 107 | 6
CP(=O)(Nc1cc(Cl)ccc1Cl)c1nc2c(s1)CCCC2 (stereo not given) | 1 | 100 | 100 | 4
Cc1csc(NC(=O)CN2C(=O)COc3ccc(Cl)cc32)n1 | -3 | 103 | 99 | -59
O=C(CSc1nnc2n1CCCCC2)Nc1ccnn1C1CCCC1 | -12 | 105 | 105 | -3
Nc1sc2c(c1C(=O)Nc1ccc(Cl)cc1)CCC2 | x | 89* | 91* | -3
Cc1cc(O)cc(O)c1C(=O)COc1ccccc1 | 18 | 102 | 97 | x
O=C1CCCN1CCCNc1nc(-c2cccc(Cl)c2)c2c(n1)-c1ccccc1OC2 | 103 | 105 | 107 | -25
C=CCN(CC=C)C(=O)Cc1ccccc1OC | x | 105 | 109 | -6
O=C(c1ccco1)N1N=C2c3ccccc3CCC2C1c1ccc(F)cc1 (stereo not given) | 4 | 101 | 105 | 16
Cc1ccc(C(N)=S)c(=O)[nH]1 | 173 | 85* | 91* | -55
CCN1CCN(CCC(=O)Nc2ccccc2)CC1 | x | 99 | 111 | -1
N#C/C(=N\Nc1ccc(C(=O)O)cc1)C(=O)c1ccccc1 | 6 | 98 | 100 | -434
O=C(O)c1ccccc1C(=O)n1c(COc2ccc(Cl)cc2Cl)nc2ccccc21 | -6 | 101 | 104 | -8
NC(CCC(F)(F)F)C(=O)O (stereo not given) | 9 | 103 | 93 | -24
CCN(CC)C(=O)Cn1ncc2c3ccccc3n(Cc3ccc(F)cc3)c2c1=O | 82 | 104 | 104 | -33
COc1ccc2cc(C(C)c3nc4ccccc4n3C)ccc2c1 (stereo not given) | -2 | 104 | 98 | -23
C=CCn1c(C2COc3ccccc3O2)n[nH]c1=S (stereo not given) | 98* | 100 | 104 | -22
Cc1ccc(-c2noc(-c3c[nH]c4ccc(S(=O)(=O)NC(C)C)cc4c3=O)n2)cc1 | 67 | 101 | 102 | -5
COc1cc(C2=NOC(C(=O)N3CCN(c4ccc(F)cc4)CC3)C2)cc(OC)c1OC (stereo not given) | -10 | 103 | 101 | -34
CCOc1nnc(NS(=O)(=O)c2ccc(N)cc2)o1 | 0 | 103 | 103 | -33
O=C(NC1CCS(=O)(=O)C1)/C(=C/c1ccccc1)NC(=O)c1ccccc1 (stereo not given) | x | 105 | 103 | -9
